Six1-Eya2 inh – Six1/Eya2 interaction inhibition | hit rate 0.56% among 360,000 | activity change, % (test concentration not listed) | AID 651725 | AlphaScreen GST-Six1/His-Eya2 binding, biochemical; stronger effect = lower value; control for the full effect not named in the record | Q15475+O00167; in the data active = activity change below about -65%; inconclusive = about -30% to -65%; inactive = above about -30%; also: % is scaled to controls: 0 for no effect and ±100 for the full control effect; compound concentration not given in the record
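AlphaScreen luminescence read after one hour at 37 °C in darkness. Pin-transferred compounds met GST-Six1 and His-Eya2 protein (5X stock 250 nM/500 nM) plus glutathione donor and Ni-chelate acceptor beads (5X, 50 ug/mL).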
D2 ag – human D2 receptor agonism in beta-arrestin assay | DiscoveRx PathHunter D2 beta-arrestin, luminescence, 90 min; 100% = 57 uM dopamine signal | hit rate 0.084% among 360,000 | activation, % (test concentration not listed) | P14416; in the data active = activation above about 40%; inconclusive = about 15% to 40%; inactive = below about 15%; also: compound concentration not given in the record; the text of the record calls up to 30% inactive
Target sequence (P14416 whole entry, looked up): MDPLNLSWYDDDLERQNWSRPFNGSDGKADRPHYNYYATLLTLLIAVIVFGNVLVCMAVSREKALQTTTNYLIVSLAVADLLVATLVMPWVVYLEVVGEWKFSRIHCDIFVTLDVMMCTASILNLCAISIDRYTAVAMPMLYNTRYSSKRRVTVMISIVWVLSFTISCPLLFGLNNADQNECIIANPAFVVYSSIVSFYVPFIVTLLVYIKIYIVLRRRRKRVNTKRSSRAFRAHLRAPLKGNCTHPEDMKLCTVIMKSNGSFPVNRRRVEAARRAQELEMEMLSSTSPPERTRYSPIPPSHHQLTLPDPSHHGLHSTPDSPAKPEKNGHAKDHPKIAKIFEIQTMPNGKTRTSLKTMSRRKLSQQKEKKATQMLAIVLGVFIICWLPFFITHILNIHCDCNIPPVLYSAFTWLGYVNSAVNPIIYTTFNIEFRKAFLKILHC
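DiscoveRx PathHunter D2 beta-arrestin cells (2,100/well) attached overnight, then compound-stimulated 90 min at 37 C in HBSS/10 mM HEPES/0.1% Tween-20 buffer; beta-galactosidase complementation read by luminescence after 1 h at ambient temperature. Dopamine 57 uM final (EC100) as control.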
D2 potentiator – potentiates the human D2 dopamine receptor allosterically; P14416; DiscoveRx D2 beta-arrestin cells, luminescence, 90 min; 100% = 57 uM dopamine signal; potentiation, % (no concentration beside the values); hit rate 0.23% among 360,000; AID 624464; active = potentiation of 50% or more; inconclusive = 30% to 50%; inactive = 30% or less;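 also: compound concentration not given in the record; tested on top of an EC20 dose of dopamine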
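D2 cells co-treated with compound plus 50 nM dopamine (EC20) for 90 min at 37 deg C to detect potentiation. Beta-arrestin recruitment was read as enzyme-fragment luminescence after 1 h at ambient temperature. Full response was set by 57 uM dopamine.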
CtBP-E1A inh – blocks the CtBP interaction with E1A; activity change, % (test concentration not listed); hit rate 0.49% among 340,000; AID 651724; AlphaScreen GST-E1A/His-CtBP binding, 1536-well; stronger effect = lower value; control for the full effect not named in the record; in the data active means activity change below about -65%; inconclusive means about -30% to -65%; inactive means above about -30%; also: % is scaled to controls: 0 for no effect and ±100 for the full control effect; compound concentration not given in the record
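Protein mix (5X: 125 nM each GST-E1A, His-CtBP) was incubated with pinned compound 2 h at 37 deg C in dark, in 50 mM Tris pH 8.0 buffer with 300 mM NaCl. Glutathione donor and nickel acceptor beads followed; AlphaScreen signal read after 1 h.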
gsp antagonist – antagonizes gsp, the McCune-Albright syndrome mutation; gsp-mutant cells, cAMP HTRF, 30 min; control for the full effect not named in the record; Potency, µM (titrated, usually from 76.9 µM), for the others: at the highest dose activity change, negative = inhibition, usual class: inhibitors; hit rate 0.4% among 340,000; active = falling curve of any shape with a large fitted effect; inconclusive = falling curve, mostly with a smaller effect; inactive = flat or rising curve; cell line not stated here;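 also: intracellular cAMP measured with PDE inhibitor Ro 20-1724 present during compound exposure; potency is read from the fitted curve at half-maximal effect; % is scaled to controls: 0 for no effect and ±100 for the full control effect; nearly all actives have a fitted effect of over 65% in size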
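Cells in G418 medium, seeded 16-24 h, 37C; buffer exchange to DPBS + 1 mM CaCl2, 0.5 mM MgCl2, 0.05% BSA; cpds in DMSO + […] (300 uM stock), 30 min 37C; HTRF cAMP detection.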
gsp agonist – gsp mutant agonism; gsp mutant cells, cAMP HTRF, 30 min; control for the full effect not named in the record; Potency, µM (doses to about 76.9 µM), inactives show at the highest dose activation (cAMP increase), usual class: activators; hit rate 0.13% among 340,000; AID 624287; active = well fitted activation curve with a large enough effect; inconclusive = small, poorly fitted or top-dose-only effect, or another doubt; inactive = no such curve, though single readings can be large or run the other way; cell line not stated here;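 also: phosphodiesterase inhibitor Ro 20-1724 added with compounds to block cAMP breakdown; potency is read from the fitted curve at half-maximal effect; nearly all actives have a fitted effect of over 60% in size; about a fifth of the inactives were tested at one dose only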
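Cells in DMEM/10% FBS with G418 were pretreated with compounds in DMSO plus […] (300 uM stock) for 30 min at 37C. cAMP was measured by HTRF (cAMP-d2 plus anti-cAMP antibody-K) after 30 min at room temperature.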
* marks the source's active call; other numbers are inactive results; ? = inconclusive; / = no result given; [ ] = remark or other dose.

Sequence of screens: Six1-Eya2 inh, D2 ag, D2 potentiator, CtBP-E1A inh, gsp antagonist, gsp agonist
> CCn1c(COc2ccc3c(c2)CCCC3)nnc1SCC(=O)Nc1nccs1
  2, -0.4, -5, 5, 0%, -30%
> CCn1c(SCC(=O)Nc2cccc(C)c2)nc2nc3c(cc2c1=O)COC(C)(C)C3
  -20, -0.2, -5, 2, -15%, -26%[15.4 µM]
> CSC(C1CCCC1)n1nnc2ccccc21 (centres undefined)
  2, -2.9, -7, 13, -2%, /
> Cc1ccc(C(=O)Nc2nc(-c3cc(Cl)sc3Cl)cs2)cc1
  1, -2.0, 0, 3, 19%, ?
> COc1ccc(C=O)cc1CSc1nnc(COc2cccc3cccnc23)o1
  -11, -0.3, -3, 1, -4%, 3%
> Cc1ccc(-n2ncc3c(=O)[nH]c(SC(C)C)nc32)cc1
  1, -4.0, -4, -2, 1%, 7%
> FC(F)(F)c1ccccc1Cc1c(-c2ccc(Cl)cc2)nc2ccc(Br)cn12
  -4, -1.5, -5, 0, /, /
> Cc1cc(=O)oc2cc(OCC(=O)N3CCN(C(=O)C4COc5ccccc5O4)CC3)ccc12 (centres undefined)
  -3, 6.0, 8, -12, -27%, 10%
> O=C(O)c1ccc(-c2cccc([N+](=O)[O-])c2)o1
  -3, -5.3, -5, 1, 14%, -10%
> CCCCn1c(N)c(N(C)C(=O)c2ccc(-n3cccn3)cc2)c(=O)[nH]c1=O
  8, -3.3, -1, 3, 6%, -40%[inhibitor]
> COc1ccc(C2(c3ccc(OC)cc3)NC(=O)NC2=O)cc1
  4, -3.1, -3, -6, 4%, -3%[15.4 µM]
> Brc1cccc(-c2nnc3n2CCC3)c1
  0, -0.8, -19, 4, 3%, -5%
> CSc1ccccc1C(=O)N1CCC(n2nccc2NC(=O)C(C)(C)C)CC1
  -3, -0.7, -6, 6, 13%, -39%[inhibitor]
> Cc1ccc(CN(Cc2ccc(C)o2)C(=S)NCC(=O)O)cc1
  7, -1.6, -14, 3, 5%, 13%
> Cn1c(Cn2c(=O)sc3ccccc32)nnc1SCC(=O)N1CCc2ccccc21
  -4, 1.5, -2, 13, -13%, 7%
> CC[C@]12c3[nH]c4cc(-c5ccco5)ccc4c3CCN1C(=O)[C@@H](CC(=O)NCCc1ccccn1)C[C@@H]2C(=O)N1CCN(C(=O)c2ccco2)CC1
  -9, -1.6, -4, -6, -9%, /
> Cc1cc(/C=N/NC(=O)CC2(C)OCCO2)c(C)n1-c1cc(Cl)cc(Cl)c1
  -11, -4.5, -1, -8, 7%[15.4 µM], 0%
> COC(=O)COc1ccsc1C(=O)OC
  1, -1.4, -12, 8, 9%, 0%
> CCN(CC1CCCO1)C(=O)c1cc(COc2cc(C)c(Cl)c(C)c2)on1 (centres undefined)
  22, 5.7, -6, 13, -41%, 10%
> Cc1ccc(-n2c(SCC(=O)N3CC(=O)Nc4ccccc43)nc3ccccc3c2=O)cc1C
  -13, 1.8, -3, -10, ?, ?
> O=C(NCC1COc2ccccc2O1)C1CCN(S(=O)(=O)c2ccccc2)CC1 (centres undefined)
  -1, -5.2, -16, 2, 0%, -4%[15.4 µM]
> CC1CCCCN1CCCNc1ccc(C(CC(N)=O)NC(=O)Cc2ccc(Br)cc2)cc1[N+](=O)[O-] (centres undefined)
  -3, -2.1, 2, 3, 16%, /
> Cc1ccc(COc2ccc(/C=N/NC(=O)c3nnn(-c4nonc4N)c3COc3ccc(F)cc3)cc2)cc1
  1, 2.6, -1, 4, -1%, 0%
> Cc1cccn2c(=O)c(/C=C(\C#N)C(=O)NC3CCS(=O)(=O)C3)c(N3CC(C)OC(C)C3)nc12 (centres undefined)
  -1, 3.7, -4, 4, 7%, 6%[15.4 µM]
> O=C(O)c1cccc(NC(=S)NC(=O)c2ccc(-c3ccc(Cl)cc3)o2)c1
  -17, -6.4, -3, -7, ?, -4%[15.4 µM]
> O=C(O)C1C2C=CC(C2)C1C(=O)NC1CCN(Cc2ccccc2)CC1 (centres undefined)
  -2, -2.5, -16, 4, 7%, -23%
> COc1ccccc1OCC(=O)OCc1cc(-c2ccco2)on1
  -2, -3.9, -7, /, -4%, 15%
> CC(=O)Nc1ccc(Sc2ncccc2C(=O)Nc2cc(Cl)cc(Cl)c2)cn1
  1, -0.1, -21, 2, 12%, -7%
> CC(C)(/C=N/NC(=O)CSCc1ccc(Cl)cc1)CCC#N
  6, 1.8, -12, 1, -1%, 0%[15.4 µM]
> Cc1onc(-c2ccccc2Cl)c1C(=O)Nc1ccc2c(c1)OCO2
  21, -4.1, -14, 0, -1%, -28%
> CC1CCN(C(=O)c2[nH]cnc2C(=O)N(C)Cc2ccccc2)CC1
  4, 4.2, -4, 9, 11%, /
> O=C(CSc1cccc2cccnc12)N/N=C/c1ccncc1
  -20, 1.6, -14, /, -1%, -4%
> CSc1nnc(-c2cc3c(s2)-c2ccccc2CC3)o1
  64, -1.2, -3, 37, -8%, 0%
> O=C(NCCCc1ccccc1)c1ccncc1
  1, -1.8, -5, -4, 8%, -34%[inhibitor]
> Cc1cc(OCC(=O)NCc2ccncc2)ccc1Cl
  3, 0.1, -7, 2, 5%, 7%[15.4 µM]
> Cc1ccc(NC(=O)CNCc2cccs2)c(Br)c1
  2, -0.9, -5, 22, 0%, 5%
> CSCCC(NC(=O)c1ccccc1)C(=O)O (centres undefined)
  -2, -5.7, -2, 0, -5%, 18%
> O=C1Cc2cccc3cccc1c23
  3, -5.2, -37, 10, -4%, -19%
> CCCN(CC(=O)Nc1ccc(C(N)=O)cc1)CC(=O)Nc1cc(Cl)ccc1Cl
  3, 0.3, 2, 0, -3%, 12%[15.4 µM]
> COc1ccc(S(=O)(=O)N(CC(=O)N2CCOCC2)c2ccc(F)cc2)cc1OC
  5, -3.6, -9, 14, 8%, 1%[15.4 µM]

Reformatted tab-delimited: part of the list above
compound	Six1-Eya2 inh	D2 ag	D2 potentiator	CtBP-E1A inh	gsp antagonist	gsp agonist
O=C(O)c1cccc(NC(=S)NC(=O)c2ccc(-c3ccc(Cl)cc3)o2)c1	-17	-6.4	-3	-7	?	-4%[15.4 µM]
O=C(O)C1C2C=CC(C2)C1C(=O)NC1CCN(Cc2ccccc2)CC1 (centres undefined)	-2	-2.5	-16	4	7%	-23%

Next entries follow.
Sequence of screens: Six1-Eya2 inh, D2 ag, D2 potentiator, CtBP-E1A inh, gsp antagonist, gsp agonist
> COc1ccc(C2C(O)C(c3c[nH]c4ccccc34)=NN2C(=O)CCl)cc1 (centres undefined)
  -4, -4.4, 6, -1, -1%, -9%[15.4 µM]
> CC(=O)Nc1ccc(N=Cc2c(O)c3ccccc3oc2=O)cc1
  -8, -5.4, -8, -1, -2%, ?
> O=C(CN1CCN(S(=O)(=O)c2ccc3ccccc3c2)CC1)N1CCc2ccccc2C1
  -1, -0.7, -10, 9, 5%, -10%
> CC1CN(S(=O)(=O)c2cccc(C(=O)N(CCc3ccccc3)Cc3ccccc3)c2)CC(C)O1 (centres undefined)
  2, -3.1, -25, 4, ?, -11%[15.4 µM]
> CSc1nc(N)nc2c1ncn2CC(=O)NCc1ccccc1
  6, -1.4, -3, 7, 2%, /
> O=c1cc(-c2ccsc2)oc2ccccc12
  -3, -4.3, -41, 1, -3%, /
> COc1ccc(S(=O)(=O)n2cnc3cc(C)c(C)cc32)cc1
  6, -3.6, 2, 0, -4%, 12%
> CCCCCCN1C[C@H](n2cc(C3CC3)nn2)[C@@H](O)C[C@@H]1c1ccc(Cl)cc1
  0, -0.5, /, 4, /, -18%
> CCC(C)C(NC(=O)OCc1ccccc1)C(=O)OCN1C(=O)c2ccccc2C1=O (centres undefined)
  1, -0.8, -13, 6, -21%, -6%
> Cc1ccc(NC(=O)C/C(N)=N/OC(=O)c2ccccc2)cc1
  -6, 13, 25, /, 4%, -41%[inhibitor]
> CCN(CC)S(=O)(=O)c1ccc(C(=O)N2CCCCC2)cc1
  7, -2.9, -16, -1, 7%, 26%
> CNC[C@H](CC1CCCCC1)NC[C@H](Cc1ccccc1)NCCC12CC3CC(CC(C3)C1)C2
  -4, -11, 19, -15, 11%, /
> CC(=O)C(Cl)C(=O)Nc1ccccc1 (centres undefined)
  -2, -6.6, -19, 3, 9%, -14%
> Cn1c(NCCc2ccncc2)nc2cc(-c3cccc(C(F)(F)F)c3)sc2c1=O
  0, 3.7, -10, 0, /, /
> C[C@H](CO)N1C[C@H](C)[C@@H](CN(C)C(=O)NC2CCCCC2)Oc2ccc(NC(=O)CCC(F)(F)F)cc2C1=O
  7, 0.3, -11, -19, 1%, -33%[inhibitor]
> CC(C)c1nnc(NC(=O)C2CCCN2S(=O)(=O)c2ccc(Cl)cc2)s1 (centres undefined)
  5, -1.8, 13, 0, -7%, 14%
> CC(=O)C1=C(c2ccccc2)OC(N)=C(C#N)C1c1ccc(O)cc1 (centres undefined)
  2, -1.8, -9, /, -2%, -24%
> O=S(=O)(c1ccccc1)c1cnn2c(C(F)(F)F)cc(-c3ccc(F)cc3)nc12
  3, -2.4, -10, 0, 8%, ?
> O=C(Nc1ccccc1C(=O)N1CCCCC1)c1cccc(S(=O)(=O)N2CCOCC2)c1
  1, -1.3, -9, 4, 4%, -31%
> C#CCOCCOCCOCCNc1nc(N2CCN(C(=O)[C@H](CCCN=C(N)N)n3cc(C(N)[C@@H](C)CC)nn3)CC2)nc(N2CCN(C(=O)[C@H](CCCCN)n3cc([C@@H](N)CC(N)=O)nn3)CC2)n1 (some centres undefined)
  -13, -8.8, -10, -2, 11%, -22%
> Cc1nc(C)c(-c2ccn(S(=O)(=O)c3ccc(Cl)cc3)n2)o1
  -2, -6.3, -5, -6, 3%, 18%[15.4 µM]
> CC(C)C[C@@H](CO)N1CCN(CC(C)C)CCC1=O
  5, -2.0, 1, 3, 2%, /
> CCCCc1nc(SCC(=O)Nc2cc(C)on2)n[nH]1
  4, 0.1, 2, 30, 8%, -17%
> CCc1cc(C(=O)NC(C)C2CCCO2)cs1 (centres undefined)
  -3, 3.6, 6, 4, 15%, -14%
> O=C(CN1C(=O)c2ccccc2C1=O)OCC(=O)N1CCc2ccccc2C1
  19, -1.9, -7, 0, ?, -2%
> COc1ccc(Cl)cc1NC(=O)CN(C)CC(=O)Nc1ccccc1N1CCOCC1
  20, -0.4, -3, -1, 7%, -41%[inhibitor]
> O=C(Nc1ccc(N2CCN(C(=O)c3ccco3)CC2)c(Cl)c1)c1cccs1
  -18, -0.1, 12, -5, ?, -8%
> O=C(CCC(=O)N1CCSc2ccccc21)Nc1ccc(F)cc1
  -4, -2.4, -3, 1, 2%, ?
> CC(C)(O)C#Cc1ccc([C@@H]2C[C@H]3CN(c4ccccc4)C(=O)[C@]34CCCN24)s1
  0, 0.0, -3, 1, -5%, 1%
> Cc1ccc(N=Cc2cc(Cl)cc(Cl)c2O)nc1
  0, -9.4, -20, 8, -14%, 13%[15.4 µM]
> Cc1ccc(NC(=O)C2CCN(C(=O)[C@@H]3Cc4ccccc4CN3)CC2)c(C)c1
  2, 2.8, -23, 7, 6%, -20%

High-throughput results as filed in PubChem.
